Screening results (PubChem BioAssay)
Menin-MLL FL inh – qHTS Assay for Inhibitors Targeting the Menin-MLL Interaction in MLL Related Leukemias: Competition With Fluorescein Labeled MLL-derived Peptide; Fluorescence polarization, fluorescein-MLL peptide displacement from menin; FP activity change, % at 61.4 µM; 290,000 tested, under 10 active; inconclusive = falling polarisation curve, or a change in total fluorescence; inactive = total fluorescence flat and polarisation flat or rising; no compound was filed as active; the % refers to the polarisation; negative = inhibition;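 note: % of control where 0% means no effect; inhibitors lower the polarisation; unlabelled MLL peptide was the positive control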
TRPV1 PAM – HTS Assay for Compounds that Act as Potentiators of the Vanilloid Receptor 1; TRPV1-expressing cells, Fluo-8 calcium influx, capsaicin EC20 potentiation; host cell line not named in the record; control for the full effect not named in the record; potentiation, % at 8.33 µM; hit rate 0.02% among 320,000; AID 540277, 2011; active means potentiation above 80%; inconclusive means 30% to 80%; inactive means below 30%; note: 0% is about no effect
Target sequence (Q8NER1 whole entry, looked up): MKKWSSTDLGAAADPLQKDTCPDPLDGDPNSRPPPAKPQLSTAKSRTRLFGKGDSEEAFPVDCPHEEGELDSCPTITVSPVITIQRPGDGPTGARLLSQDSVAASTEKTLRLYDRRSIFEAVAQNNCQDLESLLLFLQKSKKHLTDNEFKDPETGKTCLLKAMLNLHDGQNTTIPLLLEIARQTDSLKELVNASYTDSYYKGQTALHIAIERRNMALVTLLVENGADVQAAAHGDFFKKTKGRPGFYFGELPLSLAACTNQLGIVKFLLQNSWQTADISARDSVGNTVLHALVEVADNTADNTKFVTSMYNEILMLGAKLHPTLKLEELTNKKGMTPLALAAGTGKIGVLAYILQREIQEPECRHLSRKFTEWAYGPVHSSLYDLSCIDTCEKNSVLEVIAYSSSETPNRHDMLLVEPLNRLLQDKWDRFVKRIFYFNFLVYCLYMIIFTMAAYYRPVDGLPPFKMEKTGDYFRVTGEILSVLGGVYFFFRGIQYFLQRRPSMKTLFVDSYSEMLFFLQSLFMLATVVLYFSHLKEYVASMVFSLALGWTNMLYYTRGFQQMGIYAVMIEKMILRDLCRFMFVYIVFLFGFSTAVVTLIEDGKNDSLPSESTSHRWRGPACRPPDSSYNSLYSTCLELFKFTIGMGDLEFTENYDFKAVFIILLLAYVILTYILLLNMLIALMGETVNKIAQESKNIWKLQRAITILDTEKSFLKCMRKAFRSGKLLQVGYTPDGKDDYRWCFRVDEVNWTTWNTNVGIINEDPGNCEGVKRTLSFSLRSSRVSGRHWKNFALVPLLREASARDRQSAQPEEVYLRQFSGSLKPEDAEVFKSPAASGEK
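Cells expressing TRPV1 were dye-loaded with Fluo-8 and read kinetically: 10 s baseline, 3 min after compound (agonist portion), then 2 min after EC20 capsaicin (allosteric enhancer portion). Calcium-bound dye fluorescence at 480/520 nm.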
Sfp inh – qHTS Assay for Inhibitors of Bacillus subtilis Sfp phosphopantetheinyl transferase (PPTase); Biochemical Sfp PPTase activity, qHTS; Potency, µM, inactives show max response, negative = inhibition, actives largely listed as inhibitors; hit rate 3.5% among 310,000; active = well fitted inhibition curve with a large enough effect; inconclusive = small, poorly fitted or top-dose-only effect, or another doubt; inactive = no such curve, though single readings can be large or run the other way;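 note: the enzyme is Sfp with the accession as filed and its product quenches rhodamine fluorescence; potency is the fitted concentration of half-maximal effect; 0% = enzyme reaction without inhibitor and -100% = no enzyme wells; top concentration of the series not given in the record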
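Reaction rates are the 30-min fluorescence difference (ex 525, em 598 nm) in wells containing 15 nM Sfp, 5 uM rhodamine-CoA and 12.5 uM BHQ-2-YbbR at pH 7.6 with 10 mM MgCl2.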
gsp ag – qHTS for Agonist of gsp, the Etiologic Mutation Responsible for Fibrous Dysplasia/McCune-Albright Syndrome: qHTS; hit rate 0.13% among 340,000; gsp mutant cells, cAMP HTRF, 30 min; control for the full effect not named in the record; Potency, µM (highest dose often 76.9 µM), without a hit: top-dose activation (cAMP increase), actives largely listed as activators; active = well fitted activation curve with a large enough effect; inconclusive = small, poorly fitted or top-dose-only effect, or another doubt; inactive = no such curve, though single readings can be large or run the other way; cell line not stated here;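 note: phosphodiesterase inhibitor Ro 20-1724 added with compounds to block cAMP breakdown; potency is the fitted concentration of half-maximal effect; nearly all actives have a fitted effect of over 60% in size; about a fifth of the inactives were tested at one dose only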
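Cells stably selected in G418 were plated at 2000/well, grown 16-24 hr, then given compounds in DMSO with the PDE inhibitor […] (300 uM solution added) for 30 min at 37C; cAMP was read by HTRF.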
gsp antag – qHTS for Antagonists of gsp, the Etiologic Mutation Responsible for Fibrous Dysplasia/McCune-Albright Syndrome: qHTS; gsp-mutant cells, cAMP HTRF, 30 min; control for the full effect not named in the record; Potency, µM (series often up to 76.9 µM), without a hit: at the highest dose activity change, negative = inhibition, most hits filed as inhibitors; hit rate 0.4% among 340,000; AID 624288, 2012; active = falling curve of any shape with a large fitted effect; inconclusive = falling curve, mostly with a smaller effect; inactive = flat or rising curve; cell line not stated here;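 note: intracellular cAMP measured with PDE inhibitor Ro 20-1724 present during compound exposure; potency is the fitted concentration of half-maximal effect; % is set by controls: 0 for no effect and ±100 for the full control effect; nearly all actives have a fitted effect of over 65% in size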
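G418-selected cells were plated in DMEM/10% FBS for 16-24 h at 37C, then treated with compounds plus the PDE inhibitor […] (300 uM solution added) for 30 min at 37C. Intracellular cAMP was measured by HTRF after 30 min lysis at room temperature.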
TRPML1 blocker – qHTS for Inhibitors of the Human Mucolipin Transient Receptor Potential 1 (TRPML1). TRPML1-inducible cells, Ca2+ dye fluorescence, FDSS; stronger effect = lower value; inhibition of EC80 agonist-evoked calcium signal. activity change, negative = inhibition, % (no concentration beside the values). hit rate 0.02% among 390,000; in the data active means activity change below about -50%; inconclusive means about -30% to -50%; inactive means above about -30%;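 note: stimulus is agonist 54-4 at its EC80 concentration; % is set by controls: 0 for no effect and ±100 for the full control effect; compound concentration not given in the record; the text of the record puts the active cut at -80%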
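Calcium fluorescence in TRPML1-DL cells induced overnight with Tet: a 110 s read after compound pin addition, then a 110 s antagonist read after challenge with 54-4 at 4 uM final (EC80).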
ClpP mod – qHTS Assay for Activators of ClpP. ATP-dependent Clp protease proteolytic subunit (Bacillus subtilis (strain 168)), P80244. purified B. subtilis ClpP, FRET peptide cleavage, 20 min. Potency, µM (series often up to 57.5 µM), for inactives: at the highest dose activity change, negative = active. hit rate 1.9% among 340,000; active = well fitted falling curve with a large enough effect; inconclusive = small, poorly fitted or top-dose-only effect; inactive = no such curve, though single readings can be large or run the other way; note: potency is the fitted concentration of half-maximal effect; the source files actives as falling curves though it sought activators and does not explain the sign; nearly all actives have a fitted effect of over 65% in size; many hits overshoot -100%
Target sequence (P80244 whole entry, looked up): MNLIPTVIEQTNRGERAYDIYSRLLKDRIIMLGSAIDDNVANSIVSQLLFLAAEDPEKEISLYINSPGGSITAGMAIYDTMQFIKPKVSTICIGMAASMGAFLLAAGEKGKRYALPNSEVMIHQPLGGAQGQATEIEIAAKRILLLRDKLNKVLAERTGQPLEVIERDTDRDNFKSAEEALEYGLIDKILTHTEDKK
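FRET quenching reversal measured ClpP activation: 10 microg/mL B. subtilis ClpP at pH 8 with the FRET-FV decapeptide, read at 430 nm after 320 nm excitation. The 20-min minus 0-min signal was scaled between DMSO/no-enzyme wells and ADEP (5.8 microM final).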
* = called active by the depositor; u = inconclusive; x = no result given; & = joins results of further samples; [ ] = another dose, or the depositor's remark.

SMILES	Menin-MLL FL inh	TRPV1 PAM	Sfp inh	gsp ag	gsp antag	TRPML1 blocker	ClpP mod
CCOc1ccc(-c2nnc(N3CCCCC3)c3ccccc23)cc1	-6.3	-7	-4%	-29%	50µM*	-11	-0.9%
CC(=O)c1cccc(NC(=O)C(C)OC(=O)C2=NNC(=O)CC2)c1 (configuration not stated)	x	x	x	-5%[15.4 µM]	1%	34	0.0%
CC1CCCC(C)N1C(=O)COC(=O)c1ccccc1O (configuration not stated)	x	x	x	-1%	-8%	0	x
CC(=O)c1ccc(Nc2nc(=O)c3cccnc3s2)cc1	-0.8	9	-24%	10µM*	11%	10	-0.4%
CCc1c(C)sc(NC(=O)c2noc(C)c2[N+](=O)[O-])c1C#N	-4.0	7	50µM*	-121%[inhibitor]	-8%	6	-0.7%
CC(C)CN1CCC(C(=O)NCC2CCCO2)CC1 (configuration not stated)	-2.7	0	u	11%	-1%	-11	1.0%
CN(C)[C@@H](CO)c1nnc([C@H](Cc2ccc(O)cc2)NC(=O)C2CCNCC2)o1	-8.2	-5	-17%	-8%	10%	-4	0.2%
Cc1cc(-n2c(C)cc(C(=O)CCl)c2C)no1	-0.8	8	11%	9%	16%	-5	1.8%
CCOCc1nnc(NC(=O)CSCc2ccccc2)s1	4.8	29	11%	-6%	6%	-2	-0.6%
N#Cc1c(NC(=O)CCCl)sc2c1CCCCC2	1.1	17	-7%	-24%[15.4 µM]	-17%	-9	x
CC(C)(C)C(=O)NC1CCN(S(=O)(=O)c2cccc(C(F)(F)F)c2)CC1	3.8	-11	8%	7%	0%	24	-2.0%
Cn1cnc2c1c(=O)n(Cc1ccc(Cl)cc1Cl)c(=O)n2C	1.0	2	-4%	1%	6%	25	-1.2%
Cc1cc2c(cc1S(=O)(=O)N(C)Cc1ccccc1)OCC(=O)N2	4.4	14	0%	17%	-10%	25	-0.1%
COc1cc(C(=O)Nc2cccc(-c3nc4cc(C)cc(C)c4o3)c2)cc(OC)c1OC	0.0	4	5%	-23%	9%	6	-1.5%
CC(=O)c1cccc(NC(=O)N2C3CCC2CC(NC(=O)Nc2ccccc2)C3)c1 (configuration not stated)	-2.7	u	-11%	-1%	-17%	-17	3.0%
COCCNC(=O)CN1C(=O)CSc2cc(S(=O)(=O)N3CCCCCC3)ccc21	x	x	x	u	2%	-17	2.3%
N#Cc1c(/N=C/c2ccccc2)oc(-c2ccccc2)c1-c1ccccc1	0.9	4	13%	-23%	0%	6	35µM*
COC(=O)c1c(NC(=O)CSc2nnnn2C)sc(C)c1C	3.1	-7	7%	-17%	-5%	23	0.6%
O=C(CN1C(=O)C(=O)N(Cc2ccccc2)C1=O)c1ccc[nH]1	x	2	x	3%	-9%	-13	-5.4%
Cc1ccccc1NC(=O)CN1C(=O)N/C(=C\c2cccn2-c2cccc(C(=O)O)c2)C1=O	18	1	20µM*	13%[15.4 µM]	-15%	0	x
CSc1nnc(NC(=O)c2cc3ccccc3oc2=O)s1	0.5	6	21%	-69%[inhibitor]	5%	17	1.7%
Cc1ccc(S(=O)(=O)c2nc(Cc3ccccc3)oc2N2CCOCC2)cc1	x	-23	x	14%[15.4 µM]	14%	-1	x
NC(=O)C(c1ncc(C(F)(F)F)cc1Cl)c1c(Cl)cccc1Cl (configuration not stated)	-2.2	x	3%	3%	u	-2	-3.1%
Nc1ccc(C#Cc2ccc3c(=O)c4ccccc4oc3c2)cc1	25	3	-2%	28%	8%	-7	-3.0%
Cc1cn(CC(=O)N2CCN(c3ccccn3)CC2)c(=O)[nH]c1=O	x	x	x	x	4%	-6	4.7%
Following part
SMILES	Menin-MLL FL inh	TRPV1 PAM	Sfp inh	gsp ag	gsp antag	TRPML1 blocker	ClpP mod
COc1ccc(Cc2nnc(N)s2)cc1OC	-7.1	-13	22µM*	4%	3%	1	-2.0%
CCOc1ccc(Br)cc1C(=O)Nc1ccc(C(=O)NCC(C)C)cc1	-2.1	14	0%	11%[15.4 µM]	-5%	12	-1.9%
COc1ccccc1C(NC(C)=O)c1cc(Cl)c2cccnc2c1O (configuration not stated)	-1.9	14	12%	23%	12%	22	0.3%
O=C(Nc1ccc(Cl)c(Cl)c1)C1CCN(C(=O)c2ccco2)CC1	x	27	x	-11%[15.4 µM]	-7%	16	1.3%
Cc1ccc2cc(C#N)c(SCC(=O)NNC(=O)Cc3ccccc3)nc2c1	9.2	-4	-2%	u	-4%	-3	28µM*
COc1cc(CCN2C(=O)c3cccc4cccc(c34)C2=O)c(S(=O)(=O)N2CCC(C)CC2)cc1OC	2.1	5	-7%	18%	-15%	-8	-22%
Cc1ccc(S(=O)(=O)NCCC(=O)OCC(=O)N(Cc2ccccc2)C(C)(C)C)cc1	x	5	x	22%[15.4 µM]	2%	59	x
O=C(CCC1CCCC1)NNC(=O)c1cc2ccccc2cc1O	5.0	11	22%	14%	1%	7	x
CC(OC(=O)c1cccs1)C(=O)NC1CCCCC1C (configuration not stated)	x	-5	x	10%	11%	0	-1.3%
CC(C)COP(=O)(OCC(C)C)C(Nc1ccccc1)c1ccccc1 (configuration not stated)	1.5	-5	12%	14%[15.4 µM]	-6%	1	x
N/C(=N\OC(=O)c1ccccc1F)c1ccc([N+](=O)[O-])cc1	1.4	4	18%	8%	3%	23	0.1%
O=C(O)CCCNS(=O)(=O)c1ccc(Br)s1	3.0	2	7%	-6%	0%	5	0.5%
COCCNC(=O)Cn1nc(C)c([N+](=O)[O-])c1C	-1.5	1	10%	15%[15.4 µM]	-7%	-5	-2.6%
CCn1cc(CN2CCCC(C(=O)Nc3cccc(-n4cccn4)c3)C2)cn1 (configuration not stated)	x	x	x	-4%	x	-8	-1.7%
CN(C)N1C(N)=C(C#N)C(c2cccnc2)C2=C1CC(C)(C)CC2=O (configuration not stated)	-0.5	3	9%	3%	-6%	1	u
CN(C)N1C(=O)c2c(Cl)c(Cl)c(Cl)c(Cl)c2C1=O	x	x	x	-11%	3%	-10	x
Cc1cc2ccccn2c1C(=O)c1ccc([N+](=O)[O-])o1	3.9	1	8%	1%[15.4 µM]	-8%	5	1.4%
COc1ccc(C)cc1S(=O)(=O)NC1CCCC1	0.7	-14	9%	8%	8%	17	-0.2%
Cc1ccccc1C(=O)O/N=C(\N)c1ccccc1	-1.5	u	u	7%	7%	-4	0.7%
CCC(C)Sc1cc(-c2nc3ccc(C)cn3c2NCc2ccccc2)ccc1OC (configuration not stated)	x	x	x	u	u	71	u
COc1ccccc1-c1nc(-c2ccncc2)no1	0.5	-1	10%	7%	-7%	-16	-1.8%
COc1cc2c(cc1NC(=O)/C=C/c1ccc([N+](=O)[O-])cc1)oc1ccccc12	-0.3	-6	10%	8%	2%	-15	0.8%
O=C(NCc1ccco1)N1c2ccccc2Sc2ccccc21	5.6	6	u	24%	-16%	-1	2.0%
CCCC1CCc2c(sc(NC(=O)c3cccs3)c2C(N)=O)C1 (configuration not stated)	1.4	-4	4%	-13%	0%	-6	101%
O=C(CCS(=O)(=O)CCN1CCOCC1)NCNC(=O)CCS(=O)(=O)CCN1CCOCC1	0.1	9	17%	21%	8%	8	x

Record cards, from the list above. Values in the order: Menin-MLL FL inh | TRPV1 PAM | Sfp inh | gsp ag | gsp antag | TRPML1 blocker | ClpP mod
Cc1ccc(S(=O)(=O)NCCC(=O)OCC(=O)N(Cc2ccccc2)C(C)(C)C)cc1 reads x | 5 | x | 22%[15.4 µM] | 2% | 59 | x
O=C(CCC1CCCC1)NNC(=O)c1cc2ccccc2cc1O reads 5.0 | 11 | 22% | 14% | 1% | 7 | x

The list continues:
SMILES	Menin-MLL FL inh	TRPV1 PAM	Sfp inh	gsp ag	gsp antag	TRPML1 blocker	ClpP mod
O=c1ccccn1Cc1c(Cl)cccc1Cl	1.8	5	6%	-12%	8%	13	0.9%
Cc1nn(CC(=O)Nc2cccnc2)c(=O)c2ccccc12	-0.6	2	21%	22%[15.4 µM]	-5%	-5	x
N#CC1(NC(=O)CN2C(=O)NC(Cc3c[nH]c4ccccc34)C2=O)CCCCC1 (configuration not stated)	x	x	x	-19%	-2%	47	1.0%
CCc1ccccc1OCC(=O)Nc1cccc(S(=O)(=O)N2CCCC2)c1	x	-7	x	-44%	-16%	45	-3.5%
O=C(CCN1CCOCC1)Nc1ccc(F)cc1	2.0	-9	26%	4%	6%	2	1.3%
Cc1cc2cc(C#N)c(N3CCOCC3)nc2cc1Cl	-0.5	-14	-7%	-29%	-2%	36	-7.2%
Cn1cnc2c1c(=O)[nH]c(=O)n2C	1.3	-13	14%&4%&12%&5%&11%	x	x	x	x
Fc1cccc(Cl)c1CN1CCN(c2nc3ccccc3s2)CC1	3.8	8	-26%	7%[15.4 µM]	-9%	12	x
Cc1nc2ccccc2nc1N/N=C/c1ccc(O)cc1	0.7	2	-12%	18%	5%	x	1.1%
Cc1cc(C)n2c(nc3ccccc32)c1C(=O)NCc1ccccc1	-0.9	-15	-20%	u	1%	17	4.0%
Cc1cccc(NC(=O)CCOc2ccccc2)c1	0.5	-11	11%	4%	4%	3	-1.1%
S=C(NC1CCCCC1)N(CCc1nc2ccccc2[nH]1)C1CCCC1	1.7	-10	3%	-38%[inhibitor]	-20%	-8	1.4%
CN(Cc1ccccc1)Cc1ccccc1C(O)c1ccccc1 (configuration not stated)	x	x	x	1%	-11%	41	-4.2%
COc1ccccc1OCC(=O)Nc1ccc(S(=O)(=O)N(C)c2ccccc2)cc1	-1.6	4	10%	u	-17%	-8	-1.2%
CC(=O)c1ccc(NC(=O)CN2C(=O)COc3ccc(Cl)cc32)cc1	1.4	x	3%	-18%	-6%	2	0.0%
Cn1cc(CN2CCCC(CO)(Cc3cccc(Cl)c3)C2)cn1 (configuration not stated)	0.9	-7	25%	1%	4%	-13	-0.8%
Cc1cc(S(=O)(=O)N2CCOCC2)ccc1OCC(=O)Nc1ccc(F)cc1	-0.6	15	13%	16%[15.4 µM]	-14%	-2	13µM*
